# Bioassay records: PubChem, Broad Institute
# Vaccinia stage: Vaccinia orthopox stage-specific inhibition. Vaccinia-infected cells, mCherry/Venus stage reporter fluorescence; hits give low values; some inactives read as strong as hits. activity change (mCherry), % (no concentration beside the values). 0.01% of 89,000 active;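 active = mCherry past -33% and 40 or more points under the early reporter, replicates agreeing; inconclusive = past -33% without that gap or agreement; tested in A549 cells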;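 also: scaled between vehicle wells and reference inhibitor wells; 23 nL library stock went into each well; one replicate is shown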
# Vaccinia stage Venus: also measured in Vaccinia stage; calls as there; activity change (Venus), %; measured here: Venus reporter, other viral stage;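 negative = less Venus signal; first of two replicates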
# The depositor's hits bear a star; u = inconclusive; x = no result given; & = joins results of further samples.
structure	Vaccinia stage Venus	Vaccinia stage
CC(C)NC(=O)N[C@@H]1CC[C@H](CCN)O[C@H]1CO	7	6
O=S(=O)(c1ccccc1)N1CCCCN2[C@H](CO)[C@H](c3ccc(-c4ccccc4)cc3)[C@H]2C1	-25	-33
O=C(c1cccc(F)c1)N1CC2(C1)[C@H](c1ccccc1)[C@@H](CO)N2C(=O)C1CCCCC1	2	2
COc1ccc(-c2cnc3c(c2)C(=O)N([C@H](C)CO)C[C@H](C)[C@@H](CN(C)C(=O)Cc2cccnc2)O3)cc1	6	5
CO[C@H]1CN(C)C(=O)c2cc(NC(=O)c3cc(C)on3)ccc2OC[C@@H](C)N(C(C)=O)C[C@H]1C	1	1
C[C@H]1CN([C@@H](C)CO)C(=O)Cc2cc(NC(=O)NC3CCCCC3)ccc2O[C@H]1CN(C)C(=O)Nc1ccc(C(F)(F)F)cc1	7	3
C[C@@H]1CN([C@H](C)CO)C(=O)c2cc(NS(C)(=O)=O)ccc2O[C@@H](C)CCCCO[C@H]1CN(C)Cc1ccccc1	1	0
C[C@H](CO)N1C[C@H](C)[C@@H](CN(C)C(=O)NC2CCCCC2)OCc2ccccc2-c2ccccc2C1=O	12	29
CC(C)NC(=O)N1C[C@@H]2[C@H](c3ccccc31)[C@@H](CO)N2C(=O)c1ccncc1	-3	2
C/C=C/c1ccc2c(c1)O[C@H](CN(C)C(=O)c1ccccn1)[C@H](C)CN([C@H](C)CO)S2(=O)=O	10	20
Cc1ccc(S(=O)(=O)N(C)C[C@@H]2Oc3ncc(C#CC4(O)CCCC4)cc3C(=O)N([C@H](C)CO)C[C@H]2C)cc1	-3	1
CN1C(=O)c2cc(NC(=O)c3ccccc3Cl)ccc2OC[C@@H]2O[C@H](CC(=O)NCC(F)(F)F)CC[C@H]21	10	6
C[C@@H]1CN([C@H](C)CO)C(=O)c2cccc(NC(=O)Nc3ccc(C(F)(F)F)cc3)c2O[C@H]1CN(C)S(=O)(=O)c1cccs1	x	u
C[C@@H]1CN([C@@H](C)CO)C(=O)c2cccc(NS(=O)(=O)c3ccc(Cl)cc3)c2O[C@@H]1CN(C)Cc1ccc(C(F)(F)F)cc1	-18	-21
O=C(C[C@@H]1CC[C@H]2[C@@H](COC[C@@H](O)CN2Cc2ccccc2)O1)NCc1ccccc1Cl	-11	-2
C[C@H](CO)N1C[C@H](C)[C@H](CN(C)C(=O)C2CCCCC2)Oc2ncc(-c3ccncc3)cc2C1=O	-4	3
COc1ccc(NC(=O)N2[C@@H]3CNC[C@H]2C3c2ccc(-c3ccc(OC)cc3)cc2)cc1 (stereo partly drawn)	-2&2	-1&-6
C[C@@H]1CN([C@@H](C)CO)C(=O)c2cc(N(C)C)ccc2O[C@@H](C)CCCCO[C@H]1CN(C)S(=O)(=O)c1ccc(F)cc1	-10	-18
CN(C)CCCNC(=O)[C@@H]1[C@@H](CO)[C@@H]2Cn3c(cccc3=O)[C@@H]2N1C(=O)Nc1ccccc1	4	17
O=C(NC1CCC1)[C@@H]1[C@@H](CO)[C@@H]2Cn3c(ccc(/C=C/c4ccccc4)c3=O)[C@@H]2N1Cc1cncnc1	1	-4
CCNC(=O)[C@@H]1[C@@H](CO)[C@@H]2Cn3c(ccc(-c4ccccc4)c3=O)[C@H]1N2C(=O)CC1CC1	2	4
Cc1ccc(S(=O)(=O)N(C)C[C@H]2Oc3c(NC(=O)Nc4ccccc4)cccc3C(=O)N([C@H](C)CO)C[C@@H]2C)cc1	0	-15
O=C(C1CCOCC1)N1CC2(C1)[C@@H](c1ccccc1)[C@@H](CO)N2Cc1ccc(Cl)cc1	4	-1
C[C@@H]1CN([C@@H](C)CO)C(=O)c2cc(NC(=O)C3CCCCC3)ccc2O[C@@H](C)CCCCO[C@H]1CN(C)C(=O)C1CCCCC1	x	u
COc1cccc(-c2ccc([C@H]3[C@@H](CO)N4C(=O)CN(C(=O)C5CCOCC5)C[C@H]34)cc2)c1	6	11

# Entries of single compounds, quoted from the list:
# Profile of COc1ccc(NC(=O)N2[C@@H]3CNC[C@H]2C3c2ccc(-c3ccc(OC)cc3)cc2)cc1 (stereo partly drawn) → Vaccinia stage Venus = -2&2; Vaccinia stage = -1&-6
# Profile of Cc1ccc(S(=O)(=O)N(C)C[C@H]2Oc3c(NC(=O)Nc4ccccc4)cccc3C(=O)N([C@H](C)CO)C[C@@H]2C)cc1 → Vaccinia stage Venus = 0; Vaccinia stage = -15

# The listing continues:
structure	Vaccinia stage Venus	Vaccinia stage
CC(=O)N[C@@H]1C=C[C@@H](CC(=O)NCC2CCCCC2)O[C@H]1CO	4	3
C[C@H]1CN([C@@H](C)CO)C(=O)c2cccc(NC(=O)C3CCCCC3)c2O[C@H]1CN(C)CC1CCCCC1	-2	-2
CO[C@@H]1CN(C)C(=O)c2cc(NC(C)=O)ccc2OC[C@@H](C)N(Cc2cccc(F)c2)C[C@H]1C	15	12
C[C@H]1CN([C@@H](C)CO)C(=O)c2cc(NC(=O)CCCCCC(=O)Nc3ccccc3N)ccc2O[C@@H]1CN(C)S(=O)(=O)c1ccc(F)cc1	8	16
CCCC(=O)Nc1ccc2c(c1)OC[C@@H](C)N(Cc1ccc(-c3ccccn3)cc1)C[C@H](C)[C@@H](OC)CN(C)C2=O	-25	-20
CCC(=O)Nc1ccc2c(c1)OC[C@H](C)N(C(=O)NC(C)C)C[C@@H](C)[C@@H](OC)CN(C)C2=O	-1	0
C[C@H](CO)N1C[C@H](C)[C@@H](CN(C)Cc2ccccn2)Oc2cc(-c3cccc(C#N)c3)ccc2S1(=O)=O	-24	-30
O=C(Cc1ccccc1)N[C@H]1CC[C@@H](CC(=O)N2CCOCC2)O[C@@H]1CO	0	-1
COc1ccc(NC(=O)Nc2ccc3c(c2)C(=O)N([C@H](C)CO)C[C@H](C)[C@H](CN(C)Cc2ccc(-c4ccccc4)cc2)O3)cc1	-31	-20
CO[C@H]1CN(C)C(=O)c2cc(NC(C)=O)ccc2OC[C@@H](C)N(C(=O)C2CCC2)C[C@H]1C	-4	-6
Cc1ccc(S(=O)(=O)N[C@@H]2CC[C@@H](CCNC(=O)Cc3ccccn3)O[C@@H]2CO)cc1	-2	-5
C[C@@H]1CN([C@@H](C)CO)C(=O)CCCn2nncc2CO[C@@H]1CN(C)Cc1cccc(C(=O)O)c1	5	-3
C[C@@H]1CN([C@H](C)CO)S(=O)(=O)c2ccc(-c3cccc(C(=O)N(C)C)c3)cc2O[C@H]1CN(C)C(=O)Nc1ccc(F)cc1	21&16	37&34
C[C@@H]1CCCCO[C@@H](CN(C)C(=O)Nc2ccccc2)[C@H](C)CN([C@@H](C)CO)C(=O)c2cc(NC(=O)NC3CCCCC3)ccc2O1	-7	-15
CCS(=O)(=O)Nc1ccc2c(c1)C(=O)N(C)[C@H]1CC[C@@H](CC(=O)NCCOC)O[C@@H]1CO2	6	-3
O=C(c1ccccc1F)N1CC(=O)N2[C@H](C1)[C@@H](c1ccc(C#Cc3ccc(F)cc3)cc1)[C@@H]2CO	x	u
COc1ccccc1C#Cc1ccc2c(c1)O[C@H](CN(C)Cc1ccncc1)[C@H](C)CN([C@@H](C)CO)S2(=O)=O	x	u
C[C@@H]1CN([C@H](C)CO)S(=O)(=O)c2ccc(-c3ccccc3)cc2O[C@@H]1CN(C)S(C)(=O)=O	-13	-13
C[C@@H]1CN([C@H](C)CO)C(=O)Cc2cc(NS(C)(=O)=O)ccc2O[C@@H]1CN(C)C(=O)Nc1ccc(C(F)(F)F)cc1	33	17
C[C@@H]1CN([C@@H](C)CO)C(=O)c2cc(NC(=O)CCCN(C)C)ccc2O[C@H]1CN(C)S(=O)(=O)c1ccc(Cl)cc1	7	-1
COc1ccc2c3c([nH]c2c1)[C@@H](CO)N(S(=O)(=O)c1ccc(C)cc1)CC31CCN(C(=O)Cc2cccnc2)CC1	-11	-9
CC(C)NC(=O)N(C)C[C@@H]1Oc2ncc(-c3ccc(C(=O)N(C)C)cc3)cc2C(=O)N([C@H](C)CO)C[C@@H]1C	16	22
COc1ccc(S(=O)(=O)Nc2ccc3c(c2)C(=O)N([C@@H](C)CO)C[C@@H](C)[C@@H](CN(C)C(=O)Nc2cccc4ccccc24)O3)cc1	0	3
C[C@H](CO)N1C[C@H](C)[C@H](CN(C)S(C)(=O)=O)OCCCC[C@H](C)Oc2ccc(NC(=O)Cc3ccccc3)cc2C1=O	-2	3
Cc1ccc(S(=O)(=O)Nc2ccc3c(c2)C(=O)N([C@@H](C)CO)C[C@@H](C)[C@H](CN(C)S(=O)(=O)c2cccs2)OCCCC[C@H](C)O3)cc1	-15	-16

# A run of entries from the list above:
structure	Vaccinia stage Venus	Vaccinia stage
CCC(=O)Nc1ccc2c(c1)OC[C@H](C)N(C(=O)NC(C)C)C[C@@H](C)[C@@H](OC)CN(C)C2=O	-1	0
C[C@H](CO)N1C[C@H](C)[C@@H](CN(C)Cc2ccccn2)Oc2cc(-c3cccc(C#N)c3)ccc2S1(=O)=O	-24	-30
O=C(Cc1ccccc1)N[C@H]1CC[C@@H](CC(=O)N2CCOCC2)O[C@@H]1CO	0	-1

# (next part)
structure	Vaccinia stage Venus	Vaccinia stage
C[C@H]1CN([C@@H](C)CO)C(=O)Cc2cc(NC(=O)Nc3ccc4c(c3)OCO4)ccc2O[C@@H]1CN(C)C(=O)Nc1cccc2ccccc12	13	12
CN1CCN(C(=O)C[C@@H]2C=C[C@@H](NS(=O)(=O)c3cccc(F)c3)[C@H](CO)O2)CC1	7	6
O=S(=O)(N[C@H]1CC[C@@H](CCn2cc(C3CC3)nn2)O[C@@H]1CO)c1ccc(Cl)cc1	x	u
COCC(=O)Nc1ccc2c(c1)C(=O)N(C)[C@@H]1CC[C@H](CC(=O)NCCCN(C)C)O[C@@H]1CO2	-15	-8
C[C@H](CO)N1C[C@H](C)[C@H](CN(C)C)Oc2ncc(C#Cc3ccccc3F)cc2C1=O	-20	-27
COc1ccccc1S(=O)(=O)N[C@@H]1C=C[C@@H](CC(=O)NCc2cc(F)cc(F)c2)O[C@H]1CO	3	5
COCCNC(=O)C[C@H]1CC[C@H]2[C@@H](COC[C@H](O)CN2Cc2cccc(-c3ccncc3)c2)O1	-8	-11
C[C@@H]1CN([C@@H](C)CO)C(=O)c2cc(NC(=O)Nc3ccccc3)ccc2O[C@@H]1CN(C)CC1CCCCC1	-22	-32
CC(C)NC(=O)Nc1cccc2c1O[C@@H](CN(C)C(=O)Nc1ccc3c(c1)OCO3)[C@H](C)CN([C@H](C)CO)C2=O	8	8
Cc1noc(C)c1S(=O)(=O)N(C)C[C@@H]1OCCCC[C@@H](C)Oc2ccc(NC(=O)Nc3ccccc3)cc2C(=O)N([C@H](C)CO)C[C@@H]1C	5	13
COc1ccccc1-c1cccc(-c2nc(C(=O)Nc3nccs3)cc3c2[C@@H](CCO)N(C(C)=O)C3)c1	x	u
C[C@@H]1CN([C@@H](C)CO)C(=O)c2cccc(NC(=O)NC3CCCCC3)c2O[C@H]1CN(C)S(=O)(=O)c1cn(C)cn1	2	4
C[C@@H]1CCCCO[C@@H](CN(C)C(=O)C2CCCCC2)[C@@H](C)CN([C@H](C)CO)C(=O)c2cc(NC(=O)NC3CCCCC3)ccc2O1	7	22
COCC(=O)N(C)C[C@@H]1Oc2cc(C#CCC3CCCC3)ccc2S(=O)(=O)N([C@@H](C)CO)C[C@@H]1C	x	u
Cc1ccc(S(=O)(=O)Nc2cccc3c2O[C@H](CN(C)Cc2ccc4c(c2)OCO4)[C@H](C)CN([C@H](C)CO)C3=O)cc1	9	8
OC[C@@H]1[C@H](c2ccc(-c3ccccc3F)cc2)[C@H]2CN(Cc3cncnc3)CCCCN12	-4	-8
C[C@H]1CN([C@@H](C)CO)C(=O)Cc2cc(NS(=O)(=O)c3cn(C)cn3)ccc2O[C@H]1CN(C)S(=O)(=O)c1cccs1	-5	-8
CCS(=O)(=O)N[C@@H]1CC[C@H](CC(=O)NCc2ccc(Cl)cc2)O[C@@H]1CO	-2	-4
C[C@@H]1CCCCO[C@H](CN(C)Cc2ccc3c(c2)OCO3)[C@H](C)CN([C@H](C)CO)C(=O)c2cc(NS(=O)(=O)c3ccc(F)cc3)ccc2O1	x	u
O=C(C[C@H]1C[C@@H]2c3cc(NC(=O)NC4CCCCC4)ccc3O[C@@H]2[C@@H](CO)O1)NCC(F)(F)F	3	11
CC=Cc1ccc2n(c1=O)C[C@H]1[C@H](CO)[C@@H](C(=O)NCC3CC3)[C@@H]2N1CC1CCOCC1 (mixture of isomers)	5	-1
CCCNC(=O)Nc1ccc2c(c1)OC[C@@H](C)N(S(C)(=O)=O)C[C@H](C)[C@@H](OC)CN(C)C2=O	8	20
O=C(C[C@H]1CC[C@H]2[C@@H](COC[C@@H](O)CN2C(=O)c2ccncc2)O1)NCc1ccc(-c2ccccc2)cc1	9	8
COc1ccccc1NC(=O)N1CC(=O)N2[C@H](C1)[C@H](c1ccc(-c3ccc(F)cc3)cc1)[C@@H]2CO	-21	-22
CC(=O)N(C)C[C@H]1Oc2cc(C#CC(C)(C)O)ccc2S(=O)(=O)N([C@@H](C)CO)C[C@@H]1C	12	13
O=C(Nc1cccc(Cl)c1)N[C@@H]1CC[C@H](CCn2cc(Cc3ccccc3)nn2)O[C@H]1CO	-14	-29
COc1ccc(-c2cnc3c(c2)C(=O)N([C@H](C)CO)C[C@@H](C)[C@H](CN(C)C(=O)Cc2ccccn2)O3)cc1	11	11
CC(C)NC(=O)Nc1ccc2c(c1)CC(=O)N([C@@H](C)CO)C[C@H](C)[C@@H](CN(C)S(=O)(=O)c1cn(C)cn1)O2	6	14
CCNC(=O)C[C@H]1CC[C@H]2[C@H](COc3ccc(NC(=O)c4ccc(F)c(F)c4)cc3C(=O)N2C)O1	4	15

# The list is partial (hit frequency here may not be typical).
